# Compound activity as filed in PubChem.
# Menin-MLL FL inh: inhibitors of human menin-MLL interaction, wild-type MLL peptide; 290,000 tested, under 10 active; FP activity change, % at 61.4 µM; Fluorescence polarization, fluorescein-MLL peptide displacement from menin; inconclusive = falling polarisation curve, or a change in total fluorescence; inactive = total fluorescence flat and polarisation flat or rising; no compound was filed as active; the % refers to the polarisation; negative = inhibition;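 also: % of control where 0% means no effect; inhibitors lower the polarisation; unlabelled MLL peptide was the positive control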
# Sfp PPTase inh: blocks B. subtilis Sfp PPTase activity; Q9F4F7; Biochemical Sfp PPTase activity, qHTS; Potency, µM, without a hit: max response, negative = inhibition, hits mostly inhibitors; hit rate 3.5% among 310,000; AID 1490; active = well fitted inhibition curve with a large enough effect; inconclusive = small, poorly fitted or top-dose-only effect, or another doubt; inactive = no such curve, though single readings can be large or run the other way;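 also: the enzyme is Sfp with the accession as filed and its product quenches rhodamine fluorescence; potency is read from the fitted curve at half-maximal effect; 0% = enzyme reaction without inhibitor and -100% = no enzyme wells; top concentration of the series not given in the record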
#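 Sfp 15 nM + cpd, 15 min RT; start w/ rhodamine-CoA 5 uM, BHQ-2-YbbR 12.5 uM (final); 50 mM Hepes pH 7.6, 10 mM MgCl2, 0.01% NP-40, 0.01% BSA; read 525/598 nm at 0 and 30 min.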
# Active calls of the source: *; ? = inconclusive; & = joins results of further samples; [ ] = another dose, or the depositor's remark. Only part of the results is shown (hit frequency here may not be typical).
No.	Molecule	Menin-MLL FL inh	Sfp PPTase inh
1	CCCCC/C=C\CC(O)/C=C/c1cccc(CC(O)CCCCO)n1 (stereo not given)	-5.1&-2.8	28%&13%
2	Cc1ccsc1C1CC(=O)OC2=C1C(=O)CC(C)(C)C2 (stereo not given)	2.7	15%
3	CNC(=O)[C@H](C)/C=C/C(NC(=O)OCc1ccccc1)c1ccc(C(=O)OC)cc1 (stereo not given in full)	8.3	23%
4	Cc1ccc2c(c1)NC(=O)c1cccc([N+](=O)[O-])c1CO2	-3.8	4%
5	Cc1cc2nc(-c3ccc(SCC(=O)NC(C)C)nc3)[nH]c2cc1C	2.7	-18%
6	Cn1c(SCC(=O)NCc2ccc(F)cc2)nc2c([nH]c3ccccc32)c1=O	3.6	?
7	CCC1=C/C(=C\c2ccc3c(c2)OCO3)C(=O)S1	-0.8	?
8	CCC1CCCCC1	-13	13%
9	COC(=O)C1(C(=O)OC)CC2=C[C@H](CC2=O)Cc2ccccc2[C@@H]1C[N+](=O)[O-]	-1.9&1.2	-14%&6%
10	O=C(N/N=C/c1ccc2nccnc2c1)c1ccccc1O	-1.3	7%
11	COc1ccc(N=Nc2n(C)c3ccccc3[n+]2C)cc1	?	50µM*
12	CC1CC=CC2C1C(=O)N(Cc1ccccc1)C2c1ccc(F)c(-c2ccc(N(C)C)cc2)c1 (stereo not given)	-0.1	-5%
13	CC1(O)C(=O)C=C2C=C(C3CC3)OC=C2C1=O (stereo not given)	-2.5	-24%
14	Cc1cc(C)nc(NC(=O)CSc2ncccn2)n1	-5.3	14%
15	c1ccc(CNc2oc(-c3ccccc3)nc2-c2ccccc2)cc1	1.6	-12%
16	O=c1[nH]c2cc3c(cc2cc1C(c1nnnn1CC1CCCO1)N1CCCCCC1)OCO3 (stereo not given)	4.8	-2%
17	CC1(OC(=O)C2CCCC2)C(=O)C=C2C=C3CCCN3C=C2C1=O (stereo not given)	-5.5[11.7 µM]	0%
18	CCc1ccc(S(=O)(=O)O)cc1	0.0	21%
19	NCCNS(=O)(=O)c1cccc2c(Cl)cccc12	2.4&-0.1&4.0&-13	-15%&3%&-7%&-3%
20	O=C(NCc1cc(F)cc2c1OCCO2)[C@H]1C[C@@H]1[C@H](NP(=O)(c1ccccc1)c1ccccc1)c1ccccc1	5.9	8%

# Full records, looked up by structure. Order of values: Menin-MLL FL inh, Sfp PPTase inh
# Listed for Cc1ccsc1C1CC(=O)OC2=C1C(=O)CC(C)(C)C2 (stereo not given) = 2.7, 15%
# Listed for O=C(NCc1cc(F)cc2c1OCCO2)[C@H]1C[C@@H]1[C@H](NP(=O)(c1ccccc1)c1ccccc1)c1ccccc1 = 5.9, 8%

# (continued)
No.	Molecule	Menin-MLL FL inh	Sfp PPTase inh
21	Cc1cncc(C(=O)O)[n+]1[O-]	-8.0	-17%
22	N#C/C(=C(/N)Sc1ccc(N)cc1)c1ccccc1C(F)(F)F	-1.0&-1.4	-16%&0%
23	O=C1C2CCCN2c2ccc(S(=O)(=O)N3CCOCC3)cc2N1Cc1cccc(C(F)(F)F)c1 (stereo not given)	9.2	22%
24	C=C1C(=O)OC2CC1C(OC(C)=O)CC(C)=CCCC(C)=CCC[C@@]2(C)O (stereo not given in full)	5.9	-14%
25	COc1ccc2cc(/C=C/C(=O)c3ccco3)c(Cl)nc2c1	7.9	-6%
26	COc1cc(C[C@H]2C(=O)OC[C@@H]2Cc2ccc(OC)c(OC)c2)ccc1O	26	-11%
27	O=C(CSc1nnc(Cc2cc(=O)[nH]c(=O)[nH]2)n1-c1ccc(Cl)cc1)N1CCc2ccccc21	-1.8	15%
28	CC(/C=C/C(=O)NO)=C\[C@@H](C)C(=O)c1ccc(N(C)C)cc1	1.1	11%&1%
29	CCCCNC(=O)C(c1ccc(OCC(=O)OC)c(C(=O)OC)c1)N(Cc1ccccc1)C(=O)CCCCCN1C(=O)NC(c2ccc(-c3ccccc3)cc2)C(C(=O)OCc2ccccc2)=C1C (stereo not given)	-2.1	1%
30	COc1ccc(C(=O)Nc2ccc3nc4n(c(=O)c3c2)CCCC4)cc1[N+](=O)[O-]	0.6	4%
31	CC(=O)Oc1cccc(C(=O)O)c1OC(C)=O	0.0	10%
32	COC(=O)[C@@H]1C[C@@H]2CC[C@@H](O)C[C@@H]2N1Cc1ccc(-c2ccccc2)cc1	-1.2	-1%
33	CCCC1OC2CC3C4CCC5=CC(=O)C=CC5(C)C4C(O)CC3(C)[C@]2(C(=O)CO)O1 (stereo not given in full)	-2.2	11%
34	[O-][n+]1ccccc1SSc1cccc[n+]1[O-]	1.1	0.71µM*
35	CCCn1c(-c2ccc(F)cc2)nc2c(NCCCN(C)C)nc(C)nc21	-6.0	10%
36	CC1CCC2(OC1)OC1CC3C4CCC5CC(O)CCC5(C)C4=CCC3(C)C1C2C (stereo not given)	-0.6	9%
37	CC1O[C@@H](O[C@@H]2C(O)C[C@H](O[C@@H]3C(O)C[C@@H](OC4CC[C@@]5(C)C6CC(O)[C@@]7(C)C(C8=CC(=O)OC8)CC[C@@]7(O)C6CC[C@@H]5C4)OC3C)OC2C)CC(O)[C@H]1O (stereo not given in full)	0.9	6%
38	O=C(O)CC/C=C\CC[C@H]1[C@@H](N2CCCCC2)[C@@H](O)C[C@@H]1OCc1ccc(-c2ccccc2)cc1	?	-8%
39	CC(C)(C)[Si](C)(C)c1c2c(nc3ccc(OCc4ccccc4)cc13)-c1cccc(=O)n1C2	6.4	56µM*
40	O=c1cc(-c2ccc(O)c(O)c2)oc2cc(OC3OC(CO)C(O)C(O)C3O)cc(O)c12 (stereo not given)	?	-13%

# Reprinted from the part before: three compounds, followed by the next part.
No.	Molecule	Menin-MLL FL inh	Sfp PPTase inh
38	O=C(O)CC/C=C\CC[C@H]1[C@@H](N2CCCCC2)[C@@H](O)C[C@@H]1OCc1ccc(-c2ccccc2)cc1	?	-8%
39	CC(C)(C)[Si](C)(C)c1c2c(nc3ccc(OCc4ccccc4)cc13)-c1cccc(=O)n1C2	6.4	56µM*
40	O=c1cc(-c2ccc(O)c(O)c2)oc2cc(OC3OC(CO)C(O)C(O)C3O)cc(O)c12 (stereo not given)	?	-13%
41	COCOc1ccc(Br)cc1C(=O)/C=C\c1ccc2c(c1)OCO2	-0.1[11.7 µM]	13%
42	CCCn1c(=NC(=O)c2ccc3c(c2)OCO3)c(C#N)cc2c(=O)n3cccc(C)c3nc21	?	-2%
43	C#CCCCO/N=C1/C[C@@H](O)[C@@H](O)[C@@H]2[C@H]3C(=O)N(c4ccc(F)cc4F)C(=O)[C@@H]3CC[C@H]12	-0.6[11.7 µM]	7%
44	CCOC(=O)OCC1OC(c2ccccc2)C=CC1Oc1ccc(F)cc1C (stereo not given)	-0.9[11.7 µM]	5%
45	CCOC(=O)CCN1C(=O)[C@H]2[C@H]3[C@H](O)[C@H](O)C/C(=N/O[C@@H]4O[C@@H](COC(C)=O)[C@@H](OC(C)=O)[C@@H](OC(C)=O)[C@H]4OC(C)=O)[C@H]3CC[C@@H]2C1=O	1.6[11.7 µM]	14%
46	CCCCC(=O)N(Cc1ccc(-c2ccccc2-c2nn[nH]n2)cc1)C(C(=O)O)C(C)C (stereo not given)	0.3	-18%
47	C=C(C(C)=O)C(O)c1cccc(Br)c1 (stereo not given)	-1.3	8%
48	Cc1cc(C)n(C(=O)C23CC4CC(CC(C4)C2)C3)n1	2.5	9%
49	C=C1c2ccccc2O[C@H](C(=O)OCC)[C@@H]1CC(C)(C)c1ccccc1	1.2[94.6 µM]	3%
50	COc1ccc(NC(=O)c2cccc(C(=O)Nc3ccc(OC)cc3)n2)cc1	-1.5	?
51	Cc1cccc(CSc2nc3ccncc3n2CC(=O)Nc2ccc(C)c(C)c2)c1	4.3	2%
52	COc1ccc(/C=C/C2=C[C@]3(C)C[C@]2(C)[C@H](c2ccc(OC)cc2)CC3=O)cc1	1.4	-24%
53	Cc1ccc(NCN2C(=O)C3C4CCC(C4)C3C2=O)cc1 (stereo not given)	0.8	1%
54	O=c1c2c3nc4ccccc4nc3n(-c3cccc(F)c3)c2ncn1Cc1ccc2c(c1)OCO2	0.7	?
55	CC(C)C[C@H](NC(=O)CNC(=O)[C@@H]1CCCN1C(=O)[C@H](CCCNC(=N)N)NC(=O)[C@H](CC(=O)O)NC(=O)[C@@H](NC(=O)[C@H](CC(N)=O)NC(=O)[C@@H](NC(=O)[C@H](CC(=O)O)NC(=O)CNC(=O)[C@@H](NC(=O)[C@@H](NC(=O)[C@H](C)NC(=O)[C@@H](N)CCC(N)=O)[C@@H](C)O)C(C)C)C(C)C)[C@@H](C)O)C(=O)N[C@@H](CC(C)C)C(=O)N[C@@H](CC(=O)O)C(=O)N[C@@H](CC(C)C)C(=O)N[C@@H](CCCCN)C(=O)O	-0.4	2%
56	Cc1ccccc1N1C(=O)c2cc(N)ccc2N/C1=C\F	1.0	3%

# Ordered by the number under Menin-MLL FL inh (highest first): 7 from the list above.
No.	Molecule	Menin-MLL FL inh	Sfp PPTase inh
39	CC(C)(C)[Si](C)(C)c1c2c(nc3ccc(OCc4ccccc4)cc13)-c1cccc(=O)n1C2	6.4	56µM*
24	C=C1C(=O)OC2CC1C(OC(C)=O)CC(C)=CCCC(C)=CCC[C@@]2(C)O (stereo not given in full)	5.9	-14%
16	O=c1[nH]c2cc3c(cc2cc1C(c1nnnn1CC1CCCO1)N1CCCCCC1)OCO3 (stereo not given)	4.8	-2%
51	Cc1cccc(CSc2nc3ccncc3n2CC(=O)Nc2ccc(C)c(C)c2)c1	4.3	2%
54	O=c1c2c3nc4ccccc4nc3n(-c3cccc(F)c3)c2ncn1Cc1ccc2c(c1)OCO2	0.7	?
31	CC(=O)Oc1cccc(C(=O)O)c1OC(C)=O	0.0	10%
27	O=C(CSc1nnc(Cc2cc(=O)[nH]c(=O)[nH]2)n1-c1ccc(Cl)cc1)N1CCc2ccccc21	-1.8	15%
